# ZTA counter: blocks Epstein-Barr virus ZTA, an EBNA-1 counter-screen. P03206. ZTA-DNA binding, fluorescence polarization. inhibition, % at 11 µM. 320,000 tested, 0.15% active; in the data active = inhibition above about 33%
# PAFAH1B2 inh: PAFAH1B2 enzyme inhibitors, primary screen, biochemical, fluorescence polarization, human. Platelet-activating factor acetylhydrolase IB subunit alpha2 (Homo sapiens), P68402. recombinant PAFAH1B2, FP-rhodamine activity probe. inhibition, % at 3.39 µM. 340,000 tested, 1.2% active. AID 492953, 2010;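 active = inhibition above the mean of all tested compounds plus 3 SD, cut at about 24% in these data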;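 also: 0% = enzyme with DMSO and 100% = wells lacking PAFAH1B2; many of its hits are not listed in these tables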
# PREPL inh: PREPL enzyme inhibitors, primary screen, biochemical, fluorescence polarization. Prolyl endopeptidase-like (Homo sapiens), Q4J6C6. recombinant PREPL, fluorescence polarization activity-based probe. inhibition, % at 5.96 µM. 320,000 tested, 0.68% active; in the data active = inhibition above about 43%;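 also: 0% = enzyme with DMSO and 100% = wells lacking enzyme; many of its hits are not listed in these tables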
# pPAFAH inh: pPAFAH enzyme inhibitors, primary screen, biochemical, fluorescence polarization, human | Platelet-activating factor acetylhydrolase (Homo sapiens), Q13093 | recombinant pPAFAH, FP-rhodamine probe fluorescence polarization | inhibition, % at 3.39 µM | 330,000 tested, 1.5% active;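 active = inhibition above the mean inhibition across the screen plus 3 SD, cut at about 25% in these data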;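 also: inhibitors block binding of the rhodamine activity-based probe so polarization drops; 0% = enzyme with DMSO and 100% = wells lacking pPAFAH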
# Target sequence (Q13093 whole entry, looked up): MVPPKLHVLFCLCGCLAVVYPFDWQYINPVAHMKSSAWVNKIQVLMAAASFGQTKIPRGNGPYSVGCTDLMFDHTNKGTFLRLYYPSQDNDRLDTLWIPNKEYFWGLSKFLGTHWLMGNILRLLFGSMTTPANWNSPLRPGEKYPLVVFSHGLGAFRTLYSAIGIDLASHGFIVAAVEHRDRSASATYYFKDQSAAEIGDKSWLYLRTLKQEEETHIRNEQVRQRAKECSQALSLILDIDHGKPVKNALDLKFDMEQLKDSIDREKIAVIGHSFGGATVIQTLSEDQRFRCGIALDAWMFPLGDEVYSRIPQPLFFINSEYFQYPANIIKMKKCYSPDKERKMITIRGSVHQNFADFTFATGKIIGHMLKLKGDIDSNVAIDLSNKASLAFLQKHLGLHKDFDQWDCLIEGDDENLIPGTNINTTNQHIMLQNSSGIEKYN
# LYPLA1 counter: LYPLA1 inhibitors, primary screen, counter-screen for PME1 inhibitor project, biochemical, fluorescence polarization, FP-Rh probe ABPP; inhibition, % at 5.9 µM; recombinant LYPLA1; 320,000 tested, 0.16% active; AID 2174, 2009; Acyl-protein thioesterase 1 (Homo sapiens), O75608;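 active = inhibition above the mean of all tested compounds plus 3 SD, set per campaign, cut at about 14% in these data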;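 also: inhibitors block serine hydrolase probe labeling of LYPLA1 so polarization falls; 0% = enzyme with DMSO and 100% = wells lacking LYPLA1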
# Numbers without * were called inactive; & = joins results of further samples.
1. O=C(COc1ccc(Cl)cc1Cl)Nc1noc2ccccc12
2. O=S(=O)(c1ccc2nc(SCc3cccc(Cl)c3)[nH]c2c1)N1CCOCC1
3. Cn1ncc(Br)c1C(=O)O
4. CC(SC1=NCCS1)C(=O)Nc1nnc(-c2ccc(Cl)cc2)s1 (centres undefined)
5. CC(SC1=NCCS1)C(=O)Nc1nnc(-c2ccc(F)cc2)s1 (centres undefined)
Screen / compound no. | 1 | 2 | 3 | 4 | 5
ZTA counter | 3.5 | -18.2 | 10.3 | -4.0 | 3.7
PAFAH1B2 inh | 3.4 | 6.9 | 3.4 | 13.6 | 16.8
PREPL inh | -5.5 | 8.6 | 0.5 | -4.6 | 2.5
pPAFAH inh | -4.4 | 3.9 | 4.0 | 3.8 | -0.4
LYPLA1 counter | -4.5 | -5.1 | -0.1 | -1.0 | 1.8

# 3 records drawn at random from those above, as already listed:
1. O=C(COc1ccc(Cl)cc1Cl)Nc1noc2ccccc12
3. Cn1ncc(Br)c1C(=O)O
2. O=S(=O)(c1ccc2nc(SCc3cccc(Cl)c3)[nH]c2c1)N1CCOCC1
Screen / compound no. | 1 | 3 | 2
ZTA counter | 3.5 | 10.3 | -18.2
PAFAH1B2 inh | 3.4 | 3.4 | 6.9
PREPL inh | -5.5 | 0.5 | 8.6
pPAFAH inh | -4.4 | 4.0 | 3.9
LYPLA1 counter | -4.5 | -0.1 | -5.1

# Back to the main list, repeating the two entries before the break.
4. CC(SC1=NCCS1)C(=O)Nc1nnc(-c2ccc(Cl)cc2)s1 (centres undefined)
5. CC(SC1=NCCS1)C(=O)Nc1nnc(-c2ccc(F)cc2)s1 (centres undefined)
6. O=C(CSc1nc(O)c(Cc2ccccc2)c(=O)[nH]1)Nc1nnc(SCc2ccccc2)s1
7. CCCC(=O)Nc1ccc(Cl)c(-c2nc3ncccc3o2)c1
8. CC(=O)c1ccc(N2CCN(C(=O)c3ccc(Br)cc3)CC2)c(F)c1
9. CCNC(=O)C1CC(=O)N(CC)C(=Nc2cc(Cl)c(O)c(Cl)c2)S1 (centres undefined)
10. Cc1sc2ncnc(SCC(=O)N3CCN(C(=O)c4ccco4)CC3)c2c1C
11. CC(C(=O)O)c1cccc(C(=O)c2ccccc2)c1 (centres undefined)
12. Cc1nnc(SCC2=C(C(=O)O)N3C(=O)[C@@H](NC(=O)Cn4cnnn4)[C@H]3SC2)s1
Screen / compound no. | 4 | 5 | 6 | 7 | 8 | 9 | 10 | 11 | 12
ZTA counter | -4.0 | 3.7 | -4.0 | -9.1 | -2.2 | 6.8 | -7.9 | 5.9 | 1.1&1.4
PAFAH1B2 inh | 13.6 | 16.8 | 19.4 | -0.1 | -0.1 | -1.9 | -4.4 | 0.5 | 3.3&-0.8
PREPL inh | -4.6 | 2.5 | 5.3 | 13.6 | -1.2 | -0.7 | 17.3 | 8.4 | -3.1&1.5
pPAFAH inh | 3.8 | -0.4 | 6.9 | -11.9 | -1.3 | 3.6 | 10.2 | 15.5 | 4.4&3.2
LYPLA1 counter | -1.0 | 1.8 | 0.4 | -7.7 | 1.4 | -5.1 | 2.6 | -7.1 | 0.4&0.7

# Individual results from above.
# Entry of entry 12 in PREPL inh: -3.1&1.5
# Entry of entry 4 in PAFAH1B2 inh: 13.6
# Entry of entry 7 in PREPL inh: 13.6

# Some of the compounds tested, so the mix of outcomes need not match the whole.
